Screens as filed in PubChem BioAssay.
VACV Venus inh – inhibitors of vaccinia virus (Venus reporter). Vaccinia virus Venus reporter expression, fluorescence. Potency, µM (doses to about 36.5 µM), for inactives: at the highest dose activity change, negative = inhibition, hits mostly inhibitors. 0.46% of 330,000 active; active means well fitted inhibition curve with a large enough effect; inconclusive means small, poorly fitted or top-dose-only effect; inactive means no such curve, though single readings can be large or run the other way; tested in A549 cells; further: nearly all actives have a fitted effect of over 30% in size; inactives centre near -10
Vaccinia mCherry – inhibitors of vaccinia virus infection (mCherry reporter signal). AID 720579. Potency, µM (series often up to 36.5 µM), for inactives: at the highest dose activity change, negative = inhibition, most hits filed as inhibitors. 0.63% of 310,000 active. Vaccinia virus mCherry reporter infection, fluorescence; about a quarter of the inactives have no number; active = well fitted inhibition curve with a large enough effect; inconclusive = small, poorly fitted or top-dose-only effect; inactive = no such curve, though single readings can be large or run the other way; tested in A549 cells; further: nearly all actives have a fitted effect of over 35% in size; inactives centre near -10
Numbers without * were called inactive; [ ] = another dose, or the depositor's remark. On the % scale 0 is the no-effect control and ±100 the full control effect; potency means the concentration at half of the fitted maximal effect.

What do the screens show for `Cc1ccc(Oc2nc3c(c(=O)n(Cc4ccccc4Cl)c(=O)n3C)n2C)cc1C`?
VACV Venus inh: inconclusive; Vaccinia mCherry: inconclusive

Results for CCC(=O)Nc1nnc(-c2ccc(OC)cc2)o1 ?
VACV Venus inh: -7%; Vaccinia mCherry: inactive

How did CN=C(SCc1ccccc1)c1c(O)n(C)c(=O)n(C)c1=O do in these assays?
VACV Venus inh: -12%; Vaccinia mCherry: -15%

How did Cc1ccc(C)c(NC(=O)c2ccc(CN3CC(=O)N4CCCCC4C3=O)cc2)c1 (configuration not stated) do in these assays?
VACV Venus inh: -8%; Vaccinia mCherry: -9%

How did CC(C)(C)OC(=O)N[C@@H](Cc1ccccc1)C(=O)NCC1CCC(C(=O)N[C@@H](CCC(N)=O)C(=O)O)CC1 (some centres not stated) do in these assays?
VACV Venus inh: -20%; Vaccinia mCherry: -23%

Results for COc1cc(CNC(=O)Nc2nc(C(N)Cc3ccc(Cl)cc3)cs2)cc(OC)c1OC (configuration not stated) ?
VACV Venus inh: inconclusive; Vaccinia mCherry: inconclusive

How did CCOC(=O)CN1C(=O)C(O)(CC(=O)c2cc(OC)ccc2OC)c2ccccc21 (configuration not stated) do in these assays?
VACV Venus inh: 0%; Vaccinia mCherry: -10%

What do the screens show for `CC(C)C1(CCNC(=O)c2cccs2)CCOC(C)(C)C1` (configuration not stated)?
VACV Venus inh: -7%; Vaccinia mCherry: -8%

What do the screens show for `CCOc1ccc(S(=O)(=O)c2cn(CC)c3ccc(F)cc3c2=O)cc1`?
VACV Venus inh: -11%; Vaccinia mCherry: -13%

Results for Cc1cccc(OCC(=O)N2CCOCC2)c1 ?
VACV Venus inh: -8%; Vaccinia mCherry: inactive

Results for COc1ccccc1CCC(=O)Nc1cccc(S(=O)(=O)N2CCCCCC2)c1 ?
VACV Venus inh: inconclusive; Vaccinia mCherry: -19%

How did COc1ccccc1C(=O)NCC(=O)OCC(=O)NNC(=O)c1ccc(Br)cc1 do in these assays?
VACV Venus inh: -5%; Vaccinia mCherry: -16%

How did CCN(CC)c1ccc(-c2nn3c(-c4ccccc4OC)nnc3s2)cc1 do in these assays?
VACV Venus inh: inconclusive; Vaccinia mCherry: inconclusive

How did CCOC(=O)Cc1csc(NC(=O)Nc2ccc(F)cc2)n1 do in these assays?
VACV Venus inh: -16%; Vaccinia mCherry: -2%

Results for CC1(C)CC2CC(C)(CN2C(=O)c2cccs2)C1 (configuration not stated) ?
VACV Venus inh: -10%; Vaccinia mCherry: -14%

What do the screens show for `COc1ccc(Cn2c(O)c(C=Nc3ccccc3C(=O)O)c3ccccc3c2=O)cc1`?
VACV Venus inh: -14%; Vaccinia mCherry: -29%

How did CCCS(=O)(=O)N1CCC(C(=O)N2CCC(Cc3ccccc3)CC2)CC1 do in these assays?
VACV Venus inh: -27%

How did COc1ccc(/C=C2\SC(=S)N(CCCCCC(=O)Nc3cc(C)on3)C2=O)cc1OC do in these assays?
VACV Venus inh: 1%; Vaccinia mCherry: -7%

Results for O=C(Nc1cc(F)ccc1F)c1cnn2c1NC(=C1CC1)C=C2C(F)F ?
VACV Venus inh: -7%; Vaccinia mCherry: -4%

How did COc1ccc(NC(=O)[C@H](C)NS(=O)(=O)c2ccc(NC(C)=O)cc2)cc1Cl do in these assays?
VACV Venus inh: -22%; Vaccinia mCherry: inactive

What do the screens show for `COc1ccc(N2CC(C(=O)Nc3ccc(NC(C)=O)cc3)CC2=O)cc1` (configuration not stated)?
VACV Venus inh: -5%; Vaccinia mCherry: -11%

How did O=C(c1ccoc1)N1CCN(c2cc(-c3cccc(F)c3)nc3cc(-c4cccc(Cl)c4)nn23)CC1 do in these assays?
VACV Venus inh: inconclusive; Vaccinia mCherry: inconclusive

Results for Cc1cccc(OCC(=O)NNC(=O)CCN2CCN(c3ccccc3)CC2)c1C ?
VACV Venus inh: -9%; Vaccinia mCherry: -25%

What do the screens show for `COCCNC(=O)C(c1ccncc1)N(Cc1ccccc1)C(=O)Cn1nnc2ccccc21` (configuration not stated)?
VACV Venus inh: 1%; Vaccinia mCherry: inactive

Results for COC(=O)N1C2CCCCC2=NN(c2ccccc2)N1C(=O)OC (configuration not stated) ?
VACV Venus inh: -4%; Vaccinia mCherry: 30%

Results for COc1cc(C=CC(=O)c2cc(OC)c(OC)c(OC)c2)cc(OC)c1OC ?
VACV Venus inh: inconclusive; Vaccinia mCherry: -2%

Results for CC(C)C(CCNCc1ccccn1)c1ccc(Cl)cc1 (configuration not stated) ?
VACV Venus inh: 3%; Vaccinia mCherry: 11%

Results for Cc1cccc(/C(N)=N/OC(=O)c2ccncc2)c1 ?
VACV Venus inh: -9%; Vaccinia mCherry: -21%

What do the screens show for `COc1ccc(CC(=O)O/N=C(\N)c2ccncc2)cc1`?
VACV Venus inh: -10%; Vaccinia mCherry: -6%

What do the screens show for `CC(=O)Nc1ccc(NC(=O)c2cc([N+](=O)[O-])cc([N+](=O)[O-])c2)cc1`?
VACV Venus inh: -10%; Vaccinia mCherry: -30%

What do the screens show for `Cc1ccc(/C=C2\Oc3c(ccc(O)c3CN3CCN(CCO)CC3)C2=O)cc1`?
VACV Venus inh: -15%; Vaccinia mCherry: -14%

What do the screens show for `Nc1ncnc2c1ncn2[C@@H]1O[C@H](CNCc2ccc(OCc3ccccc3)cc2)[C@@H](O)[C@H]1O`?
VACV Venus inh: -15%; Vaccinia mCherry: inactive

What do the screens show for `N#CC1=C(N)NC(SCc2ccc(F)cc2)=C(C#N)C12CCCCC2`?
VACV Venus inh: inconclusive

What do the screens show for `COc1ccc(NC(=O)Cn2cc(C#N)c3ccccc32)cc1`?
VACV Venus inh: 19%; Vaccinia mCherry: -5%

Results for CCSc1ccccc1C(=O)Nc1ccc(-c2nc3ccccc3s2)c(O)c1 ?
VACV Venus inh: -8%[7.34 µM]; Vaccinia mCherry: -1%[7.34 µM]

Results for Cc1nc2c(OCc3ccc(C(F)(F)F)cc3)cccn2c1N(C)CC1CC1 ?
VACV Venus inh: inconclusive; Vaccinia mCherry: inconclusive

What do the screens show for `Cc1oc(=O)cc(OCc2ccccc2)c1C`?
VACV Venus inh: -8%; Vaccinia mCherry: -3%

What do the screens show for `Cc1ccc(NC(=O)Nc2cccc([N+](=O)[O-])c2)cc1F`?
VACV Venus inh: inconclusive; Vaccinia mCherry: inconclusive

Results for Cc1ccc(C(=O)OCC(=O)N2CCCCCC2)cc1S(=O)(=O)N1CCOCC1 ?
VACV Venus inh: -13%; Vaccinia mCherry: -15%

How did Cc1ccc(C(=O)Nn2cnc3scc(-c4cccs4)c3c2=O)c(O)c1 do in these assays?
VACV Venus inh: -3%; Vaccinia mCherry: -13%

How did COc1cc(NC(=O)CCc2c(C)nc3c4c(C)cc(C)nc4nn3c2C)cc(OC)c1 do in these assays?
VACV Venus inh: inconclusive; Vaccinia mCherry: -21%

What do the screens show for `Cn1ncc(Br)c1C(=O)NC12CC3CC(CC(C3)C1)C2`?
VACV Venus inh: -12%; Vaccinia mCherry: inactive

What do the screens show for `Cc1cc([N+](=O)[O-])ccc1NC(=O)Cc1ccc(F)cc1`?
VACV Venus inh: -9%; Vaccinia mCherry: -23%

Results for COc1cc(Cl)ccc1OC1(C)CCN(Cc2cccn2-c2nccs2)C1 (configuration not stated) ?
VACV Venus inh: 11%; Vaccinia mCherry: inconclusive

How did CC1CC(C)CN(C(=O)COC(=O)C2CCN(S(=O)(=O)c3ccc4c(c3)OCCO4)CC2)C1 (configuration not stated) do in these assays?
VACV Venus inh: -7%; Vaccinia mCherry: -12%

Results for COc1ccccc1NC(=O)C1=C(C)NC2=C(C(=O)CCC2)C1c1ccc(C)o1 (configuration not stated) ?
VACV Venus inh: -8%; Vaccinia mCherry: -10%

Results for CC(=O)NCCNC(=O)c1ccc(NC2=NC3CS(=O)(=O)CC3S2)cc1 (configuration not stated) ?
VACV Venus inh: -1%; Vaccinia mCherry: -12%

How did O=C(C[n+]1cccc(CNC(=O)c2ccc(OC(F)F)cc2)c1)Nc1ccc(SC(F)F)cc1 do in these assays?
VACV Venus inh: -12%; Vaccinia mCherry: -25%

How did Cc1cccc(-n2nnc(-c3nc(-c4cccs4)no3)c2N)c1C do in these assays?
VACV Venus inh: -10%; Vaccinia mCherry: -8%

What do the screens show for `COc1cc(NS(=O)(=O)c2ccc(NC(=O)C(C)Oc3ccc(Cl)cc3Cl)cc2)nc(OC)n1` (configuration not stated)?
VACV Venus inh: -13%; Vaccinia mCherry: -15%

What do the screens show for `c1cc(-c2noc(CC3CCCCC3)n2)ccn1`?
VACV Venus inh: -14%; Vaccinia mCherry: -17%

What do the screens show for `CC(C)c1ccccc1NC(=O)c1ccc2ncsc2c1`?
VACV Venus inh: 2%; Vaccinia mCherry: -5%

What do the screens show for `Cc1ccc(NC(=O)CCS(=O)(=O)c2cccc3nonc23)c(C)c1`?
VACV Venus inh: -8%; Vaccinia mCherry: -8%

Results for O=C(CCCCCn1c(=O)[nH]c2ccccc2c1=O)NCc1cccc(Cl)c1 ?
VACV Venus inh: -9%; Vaccinia mCherry: -12%

What do the screens show for `COCCCNC(=O)c1cccc(OC)c1OC`?
VACV Venus inh: -6%; Vaccinia mCherry: inactive

Results for COc1ccc(-c2cn3c(C)c(C(=O)NCCN4CCOCC4)sc3n2)cc1 ?
VACV Venus inh: 0%; Vaccinia mCherry: -10%

Results for CCOc1ccc(C(c2c(O)cc(C)n(CCOC)c2=O)N2CCN(c3ccc(F)cc3)CC2)cc1 (configuration not stated) ?
VACV Venus inh: -13%; Vaccinia mCherry: -12%

Results for Cn1nc(-c2ccccc2)c(C(=O)Nc2ccc(C(F)(F)F)cc2)c1Cl ?
VACV Venus inh: -8%; Vaccinia mCherry: -11%

How did O=C(OCC(=O)N1CCN(c2ccccc2)CC1)c1ccccc1[N+](=O)[O-] do in these assays?
VACV Venus inh: -4%; Vaccinia mCherry: -12%

How did CCCCCn1c(=O)[nH]c2cc(C(=O)N3CCN(C(=O)OCC)CC3)ccc2c1=O do in these assays?
VACV Venus inh: -11%; Vaccinia mCherry: -20%

No new results follow: two of the compounds above.
How did Cc1cccc(-n2nnc(-c3nc(-c4cccs4)no3)c2N)c1C do in these assays?
VACV Venus inh: -10%; Vaccinia mCherry: -8%

What do the screens show for `COc1cc(NS(=O)(=O)c2ccc(NC(=O)C(C)Oc3ccc(Cl)cc3Cl)cc2)nc(OC)n1` (configuration not stated)?
VACV Venus inh: -13%; Vaccinia mCherry: -15%

Pulled by structure from the entries so far:
What do the screens show for `c1cc(-c2noc(CC3CCCCC3)n2)ccn1`?
VACV Venus inh: -14%; Vaccinia mCherry: -17%

Results for CCOc1ccc(C(c2c(O)cc(C)n(CCOC)c2=O)N2CCN(c3ccc(F)cc3)CC2)cc1 (configuration not stated) ?
VACV Venus inh: -13%; Vaccinia mCherry: -12%

What do the screens show for `Cc1ccc(NC(=O)CCS(=O)(=O)c2cccc3nonc23)c(C)c1`?
VACV Venus inh: -8%; Vaccinia mCherry: -8%

What do the screens show for `COCCCNC(=O)c1cccc(OC)c1OC`?
VACV Venus inh: -6%; Vaccinia mCherry: inactive

Results for COc1ccc(-c2cn3c(C)c(C(=O)NCCN4CCOCC4)sc3n2)cc1 ?
VACV Venus inh: 0%; Vaccinia mCherry: -10%

(further entries)
How did O=C(Cn1ncc2c([nH]c3ccccc32)c1=O)NCCCN1CCN(c2ccc(F)cc2)CC1 do in these assays?
VACV Venus inh: -11%; Vaccinia mCherry: -17%

What do the screens show for `Cc1cc(C)n(-c2c(F)c(F)c(COC(=O)c3ccccc3)c(F)c2F)n1`?
VACV Venus inh: inconclusive; Vaccinia mCherry: -6%[1.46 µM]

What do the screens show for `CCC(=O)Nc1ccc2c(c1)OC[C@@H](C)N(Cc1ccccc1F)C[C@@H](C)[C@@H](OC)CN(C)C2=O`?
VACV Venus inh: -4%; Vaccinia mCherry: -7%

Results for Cc1ccc(Cc2nc3ccccc3nc2SCC(=O)NCc2ccccc2Cl)cc1 ?
VACV Venus inh: 7%; Vaccinia mCherry: 8%

What do the screens show for `Cc1nc2ccccc2nc1CN1CCOc2ccc(CN3CCc4sccc4C3)cc2C1`?
VACV Venus inh: 2%; Vaccinia mCherry: -1%

How did O=C(Nc1cccc(-c2cscn2)c1)C1CCN(Cc2ccsc2)CC1 do in these assays?
VACV Venus inh: inconclusive; Vaccinia mCherry: -3%

How did Cc1cccc(OCC(=O)N/N=C/c2ccc(N(C)C)cc2)c1 do in these assays?
VACV Venus inh: -11%; Vaccinia mCherry: -15%

What do the screens show for `CN1C(=O)c2ccccc2N(C)C1c1ccc2c(c1)OCO2` (configuration not stated)?
VACV Venus inh: -9%

How did COc1ccc(OC)c(NC(=O)Nc2nc(CN(C)C)cs2)c1 do in these assays?
VACV Venus inh: -6%; Vaccinia mCherry: inactive

How did O=C(C1CCCN(S(=O)(=O)c2cccs2)C1)N1CCN(c2cccc(Cl)c2)CC1 (configuration not stated) do in these assays?
VACV Venus inh: -10%; Vaccinia mCherry: -19%

Results for CC(Oc1ccccc1)C(=O)NNS(=O)(=O)c1ccc([N+](=O)[O-])cc1 (configuration not stated) ?
VACV Venus inh: -6%; Vaccinia mCherry: inactive

Results for O=C(Cc1ccccc1F)Nc1ccc(S(=O)(=O)Nc2ncccn2)cc1 ?
VACV Venus inh: 12%; Vaccinia mCherry: -9%

What do the screens show for `O=[N+]([O-])/C=C/c1ccc2c(ccn2Cc2ccccc2)c1`?
VACV Venus inh: inconclusive; Vaccinia mCherry: inconclusive

How did C[C@@]12CCC3[C@@](CCC4[C@@]3(C)CCC[C@@]4(C)C(=O)N3CCCCC3)(CC1=O)C2 (some centres not stated) do in these assays?
VACV Venus inh: -4%; Vaccinia mCherry: 5%
